B2AR ag – beta2AR agonists driving receptor internalization, primary screen, cell-based, FAP fluorogen, flow cytometry; Beta-2 adrenergic receptor (Homo sapiens), P07550; Am2.2-beta2AR cells; reference of the scale not given here; response, % (concentration not given with the values); actives 0.43% (n = 340,000); AID 504454, 2011;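 active = response above a set limit, near 3 SD of response in nonfluorescent compounds, cut at about 42% in these data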;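 also: stock transfer was 100 nL into about 11 µL; a reference agonist was the positive control; negative values mostly stem from fluorescent compounds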
ALR inh – inhibitors of human ALR sulfhydryl oxidase, primary screen, biochemical, H2O2 detection, HRP-luminol luminescence, single point | purified ALR, DTT oxidation | inhibition, % (no concentration beside the values) | actives 3.8% (n = 290,000);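 active = mean and each replicate at 75% or more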;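 also: stock transfer was 7.5 nL into about 7.5 µL; 0% = neutral wells and 100% = wells with inactivated enzyme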
Target sequence (P55789 whole entry, looked up): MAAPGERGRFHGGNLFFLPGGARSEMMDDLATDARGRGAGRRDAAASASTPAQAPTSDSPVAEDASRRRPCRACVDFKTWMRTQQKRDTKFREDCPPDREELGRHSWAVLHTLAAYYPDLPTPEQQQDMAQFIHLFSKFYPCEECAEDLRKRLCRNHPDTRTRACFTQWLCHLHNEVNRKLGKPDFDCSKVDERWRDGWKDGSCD
FGF22 binding – binders of human FGF22 protein, primary screen, FGF22 synaptogenesis inhibitor project, biophysical, thermal shift, single point; Fibroblast growth factor 22 (Homo sapiens), Q9HCT0; recombinant FGF22 thermal shift, SYPRO orange fluorescence; percent of sucrose octasulfate shift, DMSO zero; calls only at 9.99 µM; actives 1.5% (n = 340,000); AID 651658, 2012;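 active = melting point raised past a set limit in the mean and every replicate; three in four hits are not shown here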
Ecoli growth – E. coli growth inhibition, primary screen, OD600; actives 0.21% (n = 330,000); Escherichia coli growth, 23 h; hits give low values; AID 1053175, 2014; OD600 absorbance (no concentration beside the values);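 active = OD600 absorbance below the run mean of sample wells minus 3.6 SD, in any replicate, cut at about 0.56 in these data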;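 also: stock transfer was 300 nL into about 60 µL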
HNF4A DNA FP – change in binding of human HNF4A to DNA, primary screen, biochemical, fluorescence polarization, FITC-DNA | AID 1224865, 2016 | activity change, % at 10 µM | Hepatocyte nuclear factor 4-alpha (Homo sapiens), P41235 | 1 h | actives 0.3% (n = 360,000); in the data active = activity change above about 30%, passing the limit was not always enough;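 also: controls were the assay level and a saturating level of protein; the project sought stronger binding though the title names inhibitors; some compounds called inactive have numbers as strong as hits; positive values seem to mean higher polarization but the record does not say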
Target sequence (P41235 whole entry, looked up): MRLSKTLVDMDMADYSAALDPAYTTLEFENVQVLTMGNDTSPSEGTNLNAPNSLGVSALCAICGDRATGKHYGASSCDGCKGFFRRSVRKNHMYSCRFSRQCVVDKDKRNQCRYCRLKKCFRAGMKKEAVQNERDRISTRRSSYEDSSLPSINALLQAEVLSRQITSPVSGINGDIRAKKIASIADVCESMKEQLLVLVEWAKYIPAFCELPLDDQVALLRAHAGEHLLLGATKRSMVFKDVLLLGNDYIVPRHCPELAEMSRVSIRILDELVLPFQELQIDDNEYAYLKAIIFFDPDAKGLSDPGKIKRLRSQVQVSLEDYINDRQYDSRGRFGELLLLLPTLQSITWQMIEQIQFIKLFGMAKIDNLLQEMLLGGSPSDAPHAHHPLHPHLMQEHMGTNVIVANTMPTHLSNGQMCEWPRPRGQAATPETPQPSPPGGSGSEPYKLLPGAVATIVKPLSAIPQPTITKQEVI
UCH37 DUB inh – inhibitors of human UCH37 deubiquitinase, primary screen, biochemical, Ub-AMC cleavage, fluorescence; Ubiquitin carboxyl-terminal hydrolase isozyme L5 (Homo sapiens), Q9Y5K5; purified proteasome/UCH37; inhibition, % (no concentration beside the values); actives 0.33% (n = 330,000);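 active = mean of two replicates above 20%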;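 also: 0% = compound-free wells with enzyme and 100% = wells lacking proteasome; stock transfer was 100 nL into about 20 µL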
Target sequence (Q9Y5K5 whole entry, looked up): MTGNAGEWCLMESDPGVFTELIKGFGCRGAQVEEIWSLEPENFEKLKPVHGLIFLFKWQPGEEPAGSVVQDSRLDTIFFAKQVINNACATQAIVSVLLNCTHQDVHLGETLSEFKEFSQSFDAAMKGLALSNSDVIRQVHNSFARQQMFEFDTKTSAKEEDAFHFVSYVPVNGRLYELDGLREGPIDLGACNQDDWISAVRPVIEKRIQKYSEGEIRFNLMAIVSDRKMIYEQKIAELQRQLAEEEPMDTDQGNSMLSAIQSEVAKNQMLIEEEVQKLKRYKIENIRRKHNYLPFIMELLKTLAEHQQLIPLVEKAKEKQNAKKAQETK
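assay system = human UCH37 enzyme supplied as purified proteasome complex | amount = proteasome at 0.15 nM in the dispensed enzyme solution | schedule = 30 min compound-proteasome preincubation then 25 min substrate reaction, room temperature | measured by = fluorescence, ex 355 nm, em 460 nm | benchmarks = no-proteasome wells (full inhibition) and compound-free wells (no inhibition)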
rRNA inh HTS – reduced GFP signal of wild-type E. coli, primary screen, bacterial rRNA inhibitor project, GFP/RFP fluorescence, OD600, single point | E. coli WT GFP vs humanized-ribosome RFP mutants, 24 h; hits give low values; DMSO median 0, no signal -100 | AID 720706, 2013 | actives 1.6% (n = 350,000) | GFP signal change (wild-type ribosome), % (no concentration beside the values);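 active = significant combined selectivity score with lowered wild-type GFP, culture density cut under 30%, mutant RFP and density less affected; inactive = any of these conditions unmet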; also: one replicate is shown; some compounds called inactive have numbers as strong as hits
rRNA inh HTS OD600 – second read-out of rRNA inh HTS, no call of its own (marks repeat the call); OD600 change, %; measured here: OD600 growth;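 optical density of the mix in the first replicate; 0 = DMSO median and -100 = no signal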
rRNA inh HTS RFP – further read-out of rRNA inh HTS, marked with its call; RFP signal change, %; measured here: RFP humanized mutant strains;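 first replicate; 0 = DMSO median and -100 = no signal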
The depositor's hits bear a star; i = inactive; · = not tested or not shown.

SMILES	B2AR ag	ALR inh	FGF22 binding	Ecoli growth	HNF4A DNA FP	UCH37 DUB inh	rRNA inh HTS	rRNA inh HTS OD600	rRNA inh HTS RFP
Cc1cc(C)n(CCC(=O)N=Nc2c(O)[nH]c3ccccc23)n1	-9.5	·	i	0.684	-3.7	9.2	13.7	10.1	0.5
O=C(C1=C[C@@H](c2csc3ccccc23)C[C@@H](OCc2ccc(CO)cc2)O1)N1CCOCC1	4.6	-2.6	i	·	-3.4	1.1	-8.2	-11.3	-4.6
COc1ccc(CCNC(=O)C2CCN(S(=O)(=O)c3ccc(C)cc3)CC2)cc1OC	-1.6	12.1	i	0.684	2.2	4.0	-8.3	-4.3	0.8
Cc1ccccc1/C=N/Nc1ccnc2cc(Cl)ccc12	48.2*	9.6	i	·	29.9	·	1.0	13.6	-3.6
CCOc1ccccc1OCC(=O)OCC(=O)Nc1ncc(Cl)cc1Cl	-4.3	-5.0	·	0.733	-2.6	-2.2	-1.0	6.5	0.9
Cn1c(=O)oc2cc(S(=O)(=O)Nc3cccc([N+](=O)[O-])c3)ccc21	-14.3	-4.3	i	0.658	-0.4	3.1	-4.5	0.9	-1.3
C=CC(C)(C)c1[nH]cnc1/C=C1\NC(=O)C(C(C)C)NC1=O (configuration not stated)	3.4	21.5	i	0.652	-0.5	1.8	·	·	·
O=C(CSCc1ccc(Cl)cc1)c1ccco1	·	-5.6	·	0.736	·	2.3	·	·	·
O=C1c2ccccc2C(c2nnnn2-c2ccc3c(c2)OCCO3)N1Cc1ccccc1 (configuration not stated)	·	·	i	·	-2.9	·	-16.1	-16.6	4.3
CS(=O)(=O)N(Cc1ccc(Cl)cc1)c1ccc(C(=O)NCCSc2ccccn2)cc1	13.8	·	·	0.697	1.5	2.7	·	·	·
COCCNC(=S)N1CCC(NC(=O)C23CC4CC(CC(C4)C2)C3)CC1	0.4	-9.1	i	0.719	-2.1	4.1	4.2	-8.1	-14.7
COc1ccccc1N1CCN(c2ccc3c(c2)S(=O)(=O)c2cccc(C(=O)NCc4ccc(F)cc4)c2C3=O)CC1	·	·	i	·	4.6	·	3.1	7.2	-3.8
CCCCN1C(=O)C(CC(=O)NCCN2CCOCC2)CC(C(=O)N(C(C)C)C(C)C)=C1C (configuration not stated)	·	·	i	·	-1.1	·	1.3	14.9	-0.7
COc1ccc(/C=C2/SC(=S)N(n3c(C)ccc3C)C2=O)cc1	9.1	-0.6	·	0.763	0.5	4.3	·	·	·
COc1cc(/C=N/Nc2nc(Nc3ccccc3)nc(N3CCOCC3)n2)ccc1OC(=O)c1ccco1	18.7	-17.1	i	·	-0.4	·	·	·	·
N/C(=N\c1nc2c(c(=O)[nH]1)CCC2)Nc1ccccc1C(F)(F)F	2.7	-6.2	i	0.715	0.1	1.3	14.3	10.0	-4.8
CCC(c1nc2ccccc2[nH]1)n1c(-c2cnccn2)nc2ccccc21 (configuration not stated)	·	·	i	·	3.4	·	0.0	1.5	0.2
COc1cc(OC)cc(-c2ncc3ccccn23)c1	-0.4	12.0	·	0.66	-1.2	-17.6	14.2	8.8	3.3
O=C(CSc1nc2ccccc2c(=O)n1CCCN1CCOCC1)N1CCN(c2ccccc2)CC1	4.2	·	i	0.719	3.2	2.0	4.0	4.5	-0.3
CSc1ncccc1C(=O)NCC(=O)Nc1ccc(F)c(F)c1	-4.4	-4.7	i	0.677	3.7	-0.7	1.1	-1.3	-1.5
CC12CCC(=O)N1C(C(=O)OCC(=O)Nc1ccc(S(N)(=O)=O)cc1)CS2 (configuration not stated)	5.8	-12.6	·	0.674	-2.1	1.9	·	·	·
Cc1ccc(NC(=O)CSCC(=O)NCc2cccc(C(F)(F)F)c2)cc1	0.0	-4.7	i	0.629	-0.2	2.3	-0.8	-3.4	2.2
CC1=C(C(=O)OC2CCCC(C)C2)C(c2ccccc2)NC(=O)N1 (configuration not stated)	-6.6	50.5	i	0.693	-1.4	1.2	-7.7	-16.3	-3.3
CCOc1ccccc1/C=N/Nc1ccc(Cl)nn1	-4.9	·	i	·	-0.9	·	3.8	10.5	4.4
CN(C(=O)COC(=O)c1cc2ccccc2cc1O)c1ccccc1	6.1	-14.9	i	0.637	13.4	-5.7	-7.8	-26.5	-6.5

Single records (already shown). Values in the order: B2AR ag | ALR inh | FGF22 binding | Ecoli growth | HNF4A DNA FP | UCH37 DUB inh | rRNA inh HTS | rRNA inh HTS OD600 | rRNA inh HTS RFP
Shown for O=C(CSCc1ccc(Cl)cc1)c1ccco1 : · | -5.6 | · | 0.736 | · | 2.3 | · | · | ·
Shown for Cc1cc(C)n(CCC(=O)N=Nc2c(O)[nH]c3ccccc23)n1 : -9.5 | · | i | 0.684 | -3.7 | 9.2 | 13.7 | 10.1 | 0.5
Shown for COCCNC(=S)N1CCC(NC(=O)C23CC4CC(CC(C4)C2)C3)CC1 : 0.4 | -9.1 | i | 0.719 | -2.1 | 4.1 | 4.2 | -8.1 | -14.7
Shown for O=C(C1=C[C@@H](c2csc3ccccc23)C[C@@H](OCc2ccc(CO)cc2)O1)N1CCOCC1 : 4.6 | -2.6 | i | · | -3.4 | 1.1 | -8.2 | -11.3 | -4.6

(next part)
SMILES	B2AR ag	ALR inh	FGF22 binding	Ecoli growth	HNF4A DNA FP	UCH37 DUB inh	rRNA inh HTS	rRNA inh HTS OD600	rRNA inh HTS RFP
ONC(=Nc1ccccc1Cl)c1c(F)cccc1F	-1.3	-1.0	i	0.655	2.1	7.0	-37.0*	2.0*	3.4*
CCc1ccc(C(=O)COC(=O)CNC(=O)c2ccco2)cc1	1.3	-10.3	·	0.623	-1.1	-1.4	·	·	·
Cc1oc(-c2ccccc2)nc1C(=O)O	5.5	-4.5	·	0.711	-0.3	4.1	-3.5	-16.6	-1.6
COc1ccccc1Oc1ncnc2c1cnn2-c1ccccc1	-1.2	·	i	0.678	1.1	-32.9	16.9	3.0	3.2
CN(C)/C=C(\C#N)C(=O)Nc1ccc(F)cc1	1.5	-7.1	·	0.744	4.0	1.7	·	·	·
COc1ccc(N2C(=O)C3CCCN3C2c2ccc(F)cc2)cc1Cl (configuration not stated)	-1.8	-0.4	·	0.71	-2.7	1.5	·	·	·
O=C1CNC(=S)N1Cc1ccccc1Cl	-0.9	17.0	i	0.625	-0.4	-1.7	-10.2	11.0	8.7
CCOC(=O)/C=C/C(=O)OCC(=O)Nc1cccc(Br)c1	42.7*	91.2*	i	0.649	-1.8	1.8	-18.1	15.1	5.3
COc1ccc(-n2c(C)cc(C(=O)CN3C(=O)C(=O)N(Cc4ccccc4)C3=O)c2C)cc1	0.6	·	i	0.745	-2.1	3.7	-9.0	-6.0	0.6
CCN(Cc1cccs1)C(=O)CN1CCN(S(=O)(=O)c2ccc3c(c2)OCCCO3)CC1	3.2	·	i	0.692	4.5	1.2	-15.0	-9.7	6.0
C/C(=N\Nc1nc(C)cc(-c2ccccc2)n1)c1ccccc1	5.1	-1.3	i	·	-0.7	·	6.4	5.8	2.6
C/C(=N\Nc1ccc(S(N)(=O)=O)cc1[N+](=O)[O-])c1ccccc1O	-7.6	-0.8	i	·	-1.2	·	12.3	3.9	0.0
CCN(CC)S(=O)(=O)c1ccc(OC)c(NC(=O)/C=C/c2ccco2)c1	-2.2	-4.7	i	0.722	7.4	5.0	8.3	6.2	3.3
COC(=O)C(NC(=O)c1ccco1)(Nc1cc(C)ccn1)C(F)(F)F (configuration not stated)	1.2	-23.7	·	0.687	-0.3	1.0	·	·	·
CC(C)Oc1ccc(C(=O)N(CN2CCCC2=O)c2ccc(F)cc2)cc1	-14.4	-4.8	·	0.692	-0.5	5.6	·	·	·
CC1(c2nnc(Cc3ccccc3)o2)CC(c2cccc(Cl)c2)=NO1 (configuration not stated)	-4.7	·	i	0.638	-3.6	1.1	-17.9	-25.8	-5.3
Cc1cc(C(=O)NN=C(Cc2ccccc2)Cc2ccccc2)c(C)o1	4.9	-1.6	i	0.67	-0.6	5.8	-1.0	13.6	-1.2
O=C(Nc1ccc(CN2CCS(=O)(=O)CC2)cc1)c1ccccc1	1.0	5.9	i	0.613	3.3	2.5	9.2	11.4	0.6
CCOc1ccc2nc(NC(=O)C3=NNC(=O)CC3)sc2c1	-3.7	·	i	·	-2.4	·	13.9	3.4	2.2
Nc1c(NC2CCCCC2)c2ccccc2oc1=O	-3.5	99.3*	·	0.74	-0.1	2.4	·	·	·
Nc1cc(Cl)ccc1C(=O)OCC(=O)NC1CCCCCCC1	6.5	0.2	i	0.68	2.0	-83.5	3.3	10.0	-1.2
Cc1nc([N+](=O)[O-])c(SCC(N)=O)n1Cc1ccccc1	-0.3	6.5	i	0.698	0.1	10.5	20.0	5.1	5.1
COc1ccc(-c2cc(C3CCN(c4ccc(C(C)=O)cc4[N+](=O)[O-])CC3)[nH]n2)cc1	5.4	4.1	·	0.726	0.8	1.7	·	·	·
COc1ccccc1NC(=S)Nc1cccc2cnccc12	-3.9	0.5	i	0.66	-3.0	1.0	-0.3	-11.1	-18.2
CSc1ccc(CN2CCCC(N3CCN(c4ccccc4)CC3)C2)cc1 (configuration not stated)	18.4	·	i	0.632	-2.7	1.3	-1.4	-25.0	-1.7
CCn1c(SC(C)C)nnc1-c1cc(-c2ccccc2)sc1N	-0.3	14.4	·	0.706	2.4	-3.7	·	·	·
COc1ccc(NS(=O)(=O)c2cccc(C(=O)NNC(=O)c3ccc(O)c(Cl)c3)c2)cc1	-2.4	7.2	i	0.701	-2.0	1.1	-0.8	-14.1	3.5
CC(=O)Nc1ccc(OC(=O)COc2ccc(Br)cc2)cc1	3.1	4.3	i	0.705	0.1	2.4	18.1	16.8	1.9
CCc1ccc(CN(C)C(=O)c2cc(S(=O)(=O)N3CCN(CC)CC3)ccc2Cl)cc1	-3.0	-16.4	i	0.57	-0.8	0.1	-3.4	3.0	5.6

Four entries already listed, sorted by number of heavy atoms, rising:
SMILES	B2AR ag	ALR inh	FGF22 binding	Ecoli growth	HNF4A DNA FP	UCH37 DUB inh	rRNA inh HTS	rRNA inh HTS OD600	rRNA inh HTS RFP
CCOc1ccc2nc(NC(=O)C3=NNC(=O)CC3)sc2c1	-3.7	·	i	·	-2.4	·	13.9	3.4	2.2
O=C(Nc1ccc(CN2CCS(=O)(=O)CC2)cc1)c1ccccc1	1.0	5.9	i	0.613	3.3	2.5	9.2	11.4	0.6
CC1(c2nnc(Cc3ccccc3)o2)CC(c2cccc(Cl)c2)=NO1 (configuration not stated)	-4.7	·	i	0.638	-3.6	1.1	-17.9	-25.8	-5.3
CSc1ccc(CN2CCCC(N3CCN(c4ccccc4)CC3)C2)cc1 (configuration not stated)	18.4	·	i	0.632	-2.7	1.3	-1.4	-25.0	-1.7

Screening results deposited in PubChem by several laboratories.

Not all compounds are listed; the hit share may differ from the screen's.
